ID4 binder: ID4 (human) binding; P47928; small molecule microarray, Flag-ID4 binding, fluorescence F/B; calls only; 31,000 compounds, 1.2% hits; AID 624137;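 active means spot signal over background at p below 0.07 in all four prints; compounds were printed on slides so no solution concentration is given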;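 further: a binder raises fluorescence above local background on the spot; about 2 pmol printed per array spot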
Target sequence (P47928 whole entry, looked up): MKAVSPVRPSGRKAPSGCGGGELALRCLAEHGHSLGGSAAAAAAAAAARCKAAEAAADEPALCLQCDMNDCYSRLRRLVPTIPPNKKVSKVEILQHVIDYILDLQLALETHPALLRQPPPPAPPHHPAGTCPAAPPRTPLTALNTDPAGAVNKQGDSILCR
Myc binder: binds human c-Myc on microarray | P01106 | small molecule microarray, His-c-Myc binding, anti-His fluorescence | calls only | 17,000 compounds, 1.5% hits;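 active means spot fluorescence over background with P-value below 7% in all four replicate spots, showing protein binding; compounds were printed on slides so no solution concentration is given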;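 further: score is binary with 100 for all four spots passing and 0 otherwise; about 2 pmol printed per array spot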
Target sequence (P01106 whole entry, looked up): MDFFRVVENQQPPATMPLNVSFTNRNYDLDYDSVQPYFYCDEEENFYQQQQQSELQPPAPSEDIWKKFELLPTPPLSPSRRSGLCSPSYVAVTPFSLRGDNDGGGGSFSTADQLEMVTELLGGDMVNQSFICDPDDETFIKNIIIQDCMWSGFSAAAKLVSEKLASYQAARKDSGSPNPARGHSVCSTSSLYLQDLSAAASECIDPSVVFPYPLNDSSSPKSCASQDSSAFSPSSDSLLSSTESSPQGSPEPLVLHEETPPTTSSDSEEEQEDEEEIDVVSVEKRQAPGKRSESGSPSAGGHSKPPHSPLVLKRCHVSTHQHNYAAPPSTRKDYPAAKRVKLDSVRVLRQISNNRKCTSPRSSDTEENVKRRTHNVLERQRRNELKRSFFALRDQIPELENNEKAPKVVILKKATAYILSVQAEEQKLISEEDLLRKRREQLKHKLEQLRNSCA
mut p53 SMM: binds human mutant p53 on microarray | calls only | 17,000 compounds, 0.4% hits | small molecule microarray binding, anti-GST fluorescence;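 active means compounds whose four printed spots each glow above background more than chance allows, each with a p-value under 7%; compounds were printed on slides so no solution concentration is given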;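 further: about 2 pmol printed per array spot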
STAT3 SMM: binders of human STAT3 | P40763 | Small molecule microarray, His-STAT3 binding, anti-His fluorescence | 17,000 compounds, 0.2% hits | calls only | AID 624138;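 active means compounds whose four printed spots each show fluorescence over background unusually high for their array block, chance value under 7%; compounds were printed on slides so no solution concentration is given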;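 further: about 2 pmol printed per array spot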
Calls only; i = inactive; · = no result given.

1	CC(C)NC(=O)Nc1ccc2c(c1)C(=O)N([C@@H](C)CO)C[C@@H](C)[C@H](CN(C)Cc1ccc(C(=O)O)cc1)OCCCC[C@@H](C)O2
2	C[C@@H]1CCCCO[C@@H](CN(C)S(=O)(=O)c2ccccc2)[C@@H](C)CN([C@H](C)CO)C(=O)c2cc(NC(=O)Nc3ccc(C(F)(F)F)cc3)ccc2O1
3	C[C@@H]1CN([C@@H](C)CO)C(=O)c2cccc(NS(=O)(=O)c3cccs3)c2O[C@@H]1CN(C)C(=O)NC1CCCCC1
4	C[C@H]1CN([C@@H](C)CO)C(=O)c2cccc(NC(=O)c3ccncc3)c2O[C@H]1CN(C)C(=O)Nc1ccc(C(F)(F)F)cc1
5	C[C@@H]1CN([C@H](C)CO)C(=O)c2cc(NS(=O)(=O)c3cccs3)ccc2O[C@@H]1CN(C)C(=O)NC1CCCCC1
6	COc1ccc(CN(C)C[C@@H]2Oc3ccc(NC(=O)Nc4ccc(C(F)(F)F)cc4)cc3CC(=O)N([C@H](C)CO)C[C@H]2C)cc1
7	C=C1C(=O)O[C@@H]2/C=C(/C)[C@H](O)CC(=O)[C@](C)(O)C[C@@H](OC(=O)/C(C)=C/C)[C@@H]12
8	C[C@H](CO)N1C[C@H](C)[C@@H](CN(C)C)Oc2c(NS(=O)(=O)c3ccc(Cl)cc3)cccc2C1=O
screen / no.,1,2,3,4,5,6,7,8
ID4 binder,i,·,i,i,i,i,·,i
Myc binder,i,i,i,i,i,i,i,i
mut p53 SMM,i,i,i,i,i,i,i,i
STAT3 SMM,i,i,i,i,i,i,i,i

9	Cc1c(O)nc(SCC(=O)Nc2cccc(C(F)(F)F)c2)n(-c2ccccc2)c1=O
10	C[C@@H]1CN([C@@H](C)CO)C(=O)c2cc(NC(=O)Nc3ccc4c(c3)OCO4)ccc2O[C@H]1CN(C)S(=O)(=O)c1ccc(F)cc1
11	C[C@H](CO)N1C[C@H](C)[C@H](CN(C)C)Oc2ncc(C#CC(C)(C)O)cc2C1=O
12	CC(C)NC(=O)Nc1ccc2c(c1)C(=O)N([C@H](C)CO)C[C@H](C)[C@H](CN(C)C(=O)c1ccncc1)OCCCC[C@@H](C)O2
13	C=CCc1ccc(O[C@@H]2O[C@H](CO)[C@@H](O)[C@H](O)[C@H]2O)c(O[C@@H]2O[C@H](CO)[C@@H](O)[C@H](O)[C@H]2O)c1
14	O=c1cc(-c2ccc(O)cc2)oc2cc(O[C@@H]3O[C@H](CO)[C@@H](O)[C@H](O)[C@H]3O[C@H]3OC[C@](O)(CO)[C@H]3O)ccc12
15	CCOC(=O)c1c(NC(=O)CSc2nc3ccccc3[nH]2)sc2c1CCCC2
16	Cc1noc(C)c1NC(=O)Nc1cccc2c1O[C@H](CN(C)Cc1ccc(C(F)(F)F)cc1)[C@@H](C)CN([C@@H](C)CO)C2=O
screen / no.,9,10,11,12,13,14,15,16
ID4 binder,i,i,i,i,·,·,i,i
Myc binder,i,i,i,i,i,i,i,i
mut p53 SMM,i,i,i,i,i,i,i,i
STAT3 SMM,i,i,i,i,i,i,i,i

17	COc1ccc(S(=O)(=O)Nc2cccc3c2O[C@H](CN(C)Cc2ccncc2)[C@H](C)CN([C@@H](C)CO)C3=O)cc1
18	Cc1noc(C)c1S(=O)(=O)Nc1ccc2c(c1)CC(=O)N([C@@H](C)CO)C[C@H](C)[C@@H](CN(C)Cc1ccc(-c3ccccc3)cc1)O2
19	C[C@@H]1CN([C@@H](C)CO)C(=O)CCCn2nncc2CO[C@H]1CN(C)C(=O)Nc1ccc(N2CCN(C)CC2)cc1
20	C[C@H]1CN([C@@H](C)CO)C(=O)c2cc(NC(=O)Cc3ccccc3)ccc2O[C@@H]1CN(C)C(=O)Nc1ccccc1
21	C[C@@H]1CN([C@H](C)CO)C(=O)c2cc(N(C)C)ccc2O[C@@H](C)CCCCO[C@H]1CN(C)C(=O)Nc1cccc2ccccc12
22	O=C(CC1(O)C(=O)Nc2ccc(Cl)cc21)c1ccccn1 (configuration not stated)
23	CC(=O)n1cc([C@@H]2C=C(C(=O)N3CCN(Cc4ccc5c(c4)OCO5)CC3)O[C@H](OCc3ccc(CO)cc3)C2)c2ccccc21
24	C=CCOC(=O)[C@@H]1[C@H]2C(=O)O[C@H](c3ccccc3)[C@H](c3ccccc3)N2[C@H](c2ccc(OCCOC(=O)[C@@H]3C[C@@H]4C(=O)N[C@@H](Cc5ccccc5)C(=O)N4[C@@H]3c3cccc(OCCO)c3)cc2)[C@@]12C(=O)Nc1ccc(I)cc12
screen / no.,17,18,19,20,21,22,23,24
ID4 binder,i,i,i,i,i,i,i,i
Myc binder,i,i,i,i,i,i,i,i
mut p53 SMM,i,i,i,i,i,i,i,i
STAT3 SMM,i,i,i,i,i,i,i,i

25	Cc1noc(C)c1NC(=O)N(C)C[C@H]1OCCCC[C@@H](C)Oc2ccc(N(C)C)cc2C(=O)N([C@@H](C)CO)C[C@H]1C
26	CCOC(OCC)P(=O)(O)CCCNCc1ccc(Cl)c(Cl)c1
27	C[C@H](CO)N1C[C@H](C)[C@@H](CN(C)S(=O)(=O)c2ccccc2)Oc2ccc(NS(=O)(=O)c3cccs3)cc2CC1=O
28	COc1cc(C(=O)Nc2ccc(Oc3ncnc4sc(C)c(C)c34)cc2)cc(OC)c1OC
29	C[C@@H]1CN([C@@H](C)CO)C(=O)CCCn2cc(nn2)CO[C@H]1CN(C)C(=O)Nc1ccnc(N2CCOCC2)c1
screen / no.,25,26,27,28,29
ID4 binder,i,i,i,i,i
Myc binder,i,i,i,i,i
mut p53 SMM,i,i,i,i,i
STAT3 SMM,i,i,i,i,i

Structural class, the entries above containing a halogen.
2	C[C@@H]1CCCCO[C@@H](CN(C)S(=O)(=O)c2ccccc2)[C@@H](C)CN([C@H](C)CO)C(=O)c2cc(NC(=O)Nc3ccc(C(F)(F)F)cc3)ccc2O1
4	C[C@H]1CN([C@@H](C)CO)C(=O)c2cccc(NC(=O)c3ccncc3)c2O[C@H]1CN(C)C(=O)Nc1ccc(C(F)(F)F)cc1
6	COc1ccc(CN(C)C[C@@H]2Oc3ccc(NC(=O)Nc4ccc(C(F)(F)F)cc4)cc3CC(=O)N([C@H](C)CO)C[C@H]2C)cc1
8	C[C@H](CO)N1C[C@H](C)[C@@H](CN(C)C)Oc2c(NS(=O)(=O)c3ccc(Cl)cc3)cccc2C1=O
9	Cc1c(O)nc(SCC(=O)Nc2cccc(C(F)(F)F)c2)n(-c2ccccc2)c1=O
10	C[C@@H]1CN([C@@H](C)CO)C(=O)c2cc(NC(=O)Nc3ccc4c(c3)OCO4)ccc2O[C@H]1CN(C)S(=O)(=O)c1ccc(F)cc1
16	Cc1noc(C)c1NC(=O)Nc1cccc2c1O[C@H](CN(C)Cc1ccc(C(F)(F)F)cc1)[C@@H](C)CN([C@@H](C)CO)C2=O
22	O=C(CC1(O)C(=O)Nc2ccc(Cl)cc21)c1ccccn1 (configuration not stated)
24	C=CCOC(=O)[C@@H]1[C@H]2C(=O)O[C@H](c3ccccc3)[C@H](c3ccccc3)N2[C@H](c2ccc(OCCOC(=O)[C@@H]3C[C@@H]4C(=O)N[C@@H](Cc5ccccc5)C(=O)N4[C@@H]3c3cccc(OCCO)c3)cc2)[C@@]12C(=O)Nc1ccc(I)cc12
26	CCOC(OCC)P(=O)(O)CCCNCc1ccc(Cl)c(Cl)c1
screen / no.,2,4,6,8,9,10,16,22,24,26
ID4 binder,·,i,i,i,i,i,i,i,i,i
Myc binder,i,i,i,i,i,i,i,i,i,i
mut p53 SMM,i,i,i,i,i,i,i,i,i,i
STAT3 SMM,i,i,i,i,i,i,i,i,i,i

Screening results deposited in PubChem BioAssay by Broad Institute.

Not a hit list. Share with any hit: about 3.7%.
